GIRK2 activ = activators of human GIRK2 potassium channels | HEK293-GIRK2 thallium flux, Thallos fluorescence | calls only for hits at 25 µM | AID 1259325, 2017 | G protein-activated inward rectifier potassium channel 2 (Homo sapiens), P48051 | actives 0.05% (n = 63,000);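 active = among the strongest 0.2% of first-round signals and kept after retests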;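 also: first round at about 10 µM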
Target sequence (P48051 whole entry, looked up): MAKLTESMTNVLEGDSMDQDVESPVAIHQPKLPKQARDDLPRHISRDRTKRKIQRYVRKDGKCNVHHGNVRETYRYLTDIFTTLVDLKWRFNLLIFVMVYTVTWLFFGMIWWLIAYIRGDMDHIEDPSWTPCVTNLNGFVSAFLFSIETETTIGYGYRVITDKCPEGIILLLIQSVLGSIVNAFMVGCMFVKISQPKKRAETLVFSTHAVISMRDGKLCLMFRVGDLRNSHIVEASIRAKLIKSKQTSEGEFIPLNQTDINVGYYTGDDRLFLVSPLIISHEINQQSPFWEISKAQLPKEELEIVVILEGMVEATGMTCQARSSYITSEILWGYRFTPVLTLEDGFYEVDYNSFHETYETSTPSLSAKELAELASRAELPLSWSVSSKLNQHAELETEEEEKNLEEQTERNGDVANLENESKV
Calls only; i = inactive. Only part of the results is shown. The share of hits here may be higher or lower than overall.

SMILES	GIRK2 activ
CCc1ccc(Oc2cc(N3CCC(C(=O)NCc4ccc5c(c4)OCO5)CC3)ncn2)cc1	i
CC(O)(CCc1ccccc1)CNS(=O)(=O)c1ccccc1F (centres undefined)	i
COc1ccccc1OCC(=O)N1CCC(Oc2nc3c(C)cccc3s2)CC1	i
Cc1nc(-c2cccc(NC(=O)c3ccn(C(C)C)n3)c2)cs1	i
O=C(c1ccco1)N1CCC(CSc2ccccn2)CC1	i
C#CCn1c(C2CC(=O)N(C(C)(C)C)C2)nc2ccccc21 (centres undefined)	i
CCOc1ccccc1C(=O)NCC1CCN(Cc2cccs2)CC1	i
Cc1ccc(CNC(=O)Cn2cc(-c3nc(-c4ccc(Cl)cc4)no3)c(=O)c3ccc(C)nc32)cc1	i
COc1c(N2C[C@@H]3CCCN[C@@H]3C2)c(F)cc2c(=O)c(C(=O)O)cn(C3CC3)c12	i
O=C(COc1ccc(Cl)cc1Cl)N1CCC(Oc2ccc(Cl)cn2)CC1	i
CC(C)C(=O)Nc1c(-c2ccccn2)nsc1C(=O)NC1CCCC1	i
COc1ccc(C(=O)Nc2ccc(N3CCCC3=O)c(C)c2)cc1OC	i
Cc1ccccc1OCC(=O)Nc1ccc(-n2nnc(C(=O)NC3CC3)n2)cc1	i
O=C(CN1CCN(c2ccc(F)c(F)c2)C1=O)Nc1ccccc1C(F)(F)F	i
Cn1nc(-c2ccccc2)cc1C(=O)N1CC(c2nc(-c3ccccn3)no2)C1	i
COc1ccc(S(=O)(=O)N2CCCOC2CNC(=O)C(=O)NCCCN2CCCC2=O)cc1 (centres undefined)	i
COc1ccc(NC(=O)c2cn(-c3cc(N4CCCCC4)ncn3)cn2)c(OC)c1	i
Cc1ccc(N2CCN(S(=O)(=O)c3ccc(F)cc3)CC2)c(C)c1	i
CCN(CC)CCNC(=O)NC(=O)c1ccc(Cl)cc1	i
Cc1ccc(NCCn2c(C)cn3c4c(=O)n(C)c(=O)n(C)c4nc23)cc1	i
Cc1cc2nn(CC(=O)Nc3ccccc3C)c(=O)n2c(Nc2ccc(C)c(C)c2)n1	i
CCOC(=O)c1sc(NC(=O)c2cccc(S(=O)(=O)N3CCOCC3)c2)nc1C	i
O=C(Cn1cnc2c(sc3cccc(F)c32)c1=O)Nc1ccccc1C(F)(F)F	i
COc1ccc(CNC(=O)C2CCN(c3cnc4ccccc4n3)CC2)cc1OC	i
CCn1nccc1C(=O)N1CCN(S(C)(=O)=O)CC1	i

A second format for part of the listing above.
CCN(CC)CCNC(=O)NC(=O)c1ccc(Cl)cc1
  GIRK2 activ: i

Cc1ccc(NCCn2c(C)cn3c4c(=O)n(C)c(=O)n(C)c4nc23)cc1
  GIRK2 activ: i

Cc1cc2nn(CC(=O)Nc3ccccc3C)c(=O)n2c(Nc2ccc(C)c(C)c2)n1
  GIRK2 activ: i

CCOC(=O)c1sc(NC(=O)c2cccc(S(=O)(=O)N3CCOCC3)c2)nc1C
  GIRK2 activ: i

The listing picks up, starting 3 compounds before the break.
SMILES	GIRK2 activ
O=C(Cn1cnc2c(sc3cccc(F)c32)c1=O)Nc1ccccc1C(F)(F)F	i
COc1ccc(CNC(=O)C2CCN(c3cnc4ccccc4n3)CC2)cc1OC	i
CCn1nccc1C(=O)N1CCN(S(C)(=O)=O)CC1	i
CCCCOc1ccc(NC(=O)Nc2ccc3c(c2)CCCN3S(=O)(=O)c2ccccc2)cc1	i
O=C(Cn1ncccc1=O)N1CCC(S(=O)(=O)Cc2ccco2)CC1	i
N#Cc1nc(-c2ccc(S(=O)(=O)N3CCCCC3)cc2)oc1N1CCN(Cc2ccccc2)CC1	i
COc1cccc2cc(C(=O)C3=C(O)C(=O)N(CCCN(C)C)C3c3cccs3)oc12 (centres undefined)	i
COC(=O)COc1ccc2c(c1)O/C(=C\c1cc(Br)ccc1OC)C2=O	i
COc1ccc(C(=O)Cn2c(=O)n(CCc3cccs3)c(=O)c3sccc32)cc1	i
CS(=O)(=O)c1ccc2nc(N(Cc3cccnc3)C(=O)C3=COCCO3)sc2c1	i
Cc1c(CC(=O)O)c2cc(O)ccc2n1C(=O)c1ccc(Cl)cc1	i
CCCNC(=O)Cn1nc2c(c1NC(=O)c1ccc(C(F)(F)F)cc1)CSC2	i
COC(=O)N1CCc2ccc(F)cc2C1C(=O)N(C)OC (centres undefined)	i
CCOC(=O)N1CCN(c2nc3c(C(F)(F)F)cccc3s2)CC1	i
COCCn1c(-c2cc(OC)c(OC)c(OC)c2)nc2oc3ccccc3c(=O)c2c1=O	i
COc1ccc(Cn2c(C3CC(=O)N(c4cccc(C)c4)C3)nc3ccccc32)cc1 (centres undefined)	i
O=C(Cc1ccc(F)cc1)N1CC(c2nc(-c3cccnc3)no2)C1	i
N#Cc1nc(-c2ccc(S(=O)(=O)N3CCOCC3)cc2)oc1NCc1ccc2c(c1)OCO2	i
COc1ccc(-c2cc3c(=O)[nH]nc(SCC(=O)Nc4ccc(C)c(Cl)c4)n3n2)cc1	i
O=C(CSc1nc2c(sc(=S)n2-c2ccc(Cl)cc2)c(=O)[nH]1)NC1CCCC1	i
COc1ccc(OC)c(/C=C2\Oc3cc(OCC(=O)O)ccc3C2=O)c1	i
O=c1ccn(-c2ccc(F)c(F)c2)nc1-c1nc(-c2ccccc2F)no1	i
CS(=O)(=O)N1CCN(C(=O)c2cc3ccccc3[nH]2)CC1	i
CCN1CCC2(CC1)Oc1ccccc1C1CC(c3cc(Cl)ccc3O)=NN12 (centres undefined)	i
CCn1c(C)nnc1SCc1nc(-c2ccc(OC)cc2)oc1C	i
Cc1nc(-c2cccs2)sc1CNC(=O)Nc1ccc(F)cc1F	i
CCOc1ccc(-c2[nH]ncc2Oc2ccc(OC)cc2)c(O)c1	i
COc1ccccc1NS(=O)(=O)c1cc(N)ccc1N1CCCCC1	i

Further results follow:
SMILES	GIRK2 activ
C/C=C/C(=O)N1CCC(Oc2ccc(C(F)(F)F)cn2)CC1	i
CS(=O)(=O)c1ccc(NC(=O)c2cnn3c2OCCC3)cc1	i
O=C(CNC(=O)c1ccccc1)Nc1nc2c(s1)COCC2	i
COC(=O)c1cncc(/C=C/c2c(C)cc(O)cc2C)c1	i
O=C(Nc1c(C(=O)N2CCN(c3ccccc3F)CC2)[nH]c2ccccc12)c1ccc(Cl)cc1	i
COc1ccc(N(C)S(=O)(=O)c2ccsc2-c2nc(-c3cc(OC)cc(OC)c3)no2)cc1	i
CCNC(=O)N1CCC(c2ccccc2)C1 (centres undefined)	i
O=S(=O)(NCCOc1ccc2c(c1)OCO2)c1cccs1	i
O=c1c2scc(-c3ccc(Br)cc3)c2ncn1Cc1ccccc1	i
O=C(NCc1ccc(F)cc1)N(CCc1cccs1)Cc1cccnc1	i
CCc1nccn1CC1CCN(C(=O)c2ccccc2C(F)(F)F)CC1	i
COc1ccc(CCNC(=O)c2ccc(CNS(=O)(=O)c3cc(C)ccc3C)cc2)cc1OC	i
O=S(=O)(c1cc(F)ccc1F)N(Cc1ccsc1)Cc1ccco1	i
O=C(c1cncc(Br)c1)N1CCC(Oc2nc3ccc(F)cc3s2)CC1	i
CCOc1ccc(S(=O)(=O)NCC2CCN(C(=O)c3ccoc3)CC2)cc1	i
CS(=O)(=O)Nc1cccc(NC(=O)c2coc(NC(=O)c3ccccc3)n2)c1	i
O=C(Nc1ccc2c(c1)N(S(=O)(=O)c1ccc(F)cc1)CCC2)c1ccccn1	i
Cc1ccc(NS(=O)(=O)c2n[nH]c(C)c2C(=O)Nc2cccc(OC(F)(F)F)c2)cc1	i
O=C(c1ccco1)N(CCCn1ccnc1)c1nc2ccc(Br)cc2s1	i
COCCN(Cc1ccsc1)C(=O)c1cccc2ccccc12	i
Cc1cccc(CC(=O)N2CC(c3nc(C4CC4)no3)C2)c1	i
COc1ccc(CNC(=O)NCC#CCOc2ccc3c(c2)OCO3)cc1OC	i
O=S(=O)(NCCOc1ccc2c(c1)OCO2)c1cccc(Cl)c1Cl	i
COc1cc(C)c(C)cc1S(=O)(=O)Nc1ccc2c(c1)CC(=O)N2	i
O=C1CCCN1c1ccc(CSc2nc3c(sc4ncccc43)c(=O)n2Cc2ccccc2)cc1	i

Next part:
SMILES	GIRK2 activ
O=C(CCCc1ccccc1)NCCC(O)c1ccoc1 (centres undefined)	i
COc1ccc(-c2ccc(C(=O)Nc3cc(Cl)ccc3C)o2)c([N+](=O)[O-])c1	i
COc1cccc(N2CCN(C(=O)c3snc4c(=O)n(C)c(=O)[nH]c34)CC2)c1	i
CC(O)CNc1nc2c(c(=O)n(Cc3ccccc3)c(=O)n2C)n1C (centres undefined)	i
O=C(Nc1ccncc1)c1ccc(-n2ccnc2)nn1	i
CCOc1ccccc1N1CCN(C(=O)C2CCN(c3cc(Oc4ccccc4)ncn3)CC2)CC1	i
CCN(CC)S(=O)(=O)c1ccc(-c2nc(C#N)c(N(C)Cc3ccccc3)o2)cc1	i
O=C(NNC(=O)c1ccc(=O)n(Cc2ccc(Cl)cc2)c1)c1cccc(Cl)c1	i
CCCCC(C)(C)C(O)CC[C@H]1C(=O)CC(O)C1C/C=C\CCCC(=O)O (some centres undefined)	i
COc1cccc(C(=O)Nc2ccc(-n3nnn(C)c3=O)cc2)c1OC	i
CC(C)N(C(=O)C(=O)c1c[nH]c2ccccc12)C(C)C	i
Cc1noc(CNC(=O)c2ccc3c(c2)OCO3)n1	i
Cc1csc(COc2ccc(C(=O)NCCc3ccc(F)cc3)cc2)n1	i
Cn1cccc(C(=O)NCc2ccc(C(=O)c3cccs3)s2)c1=O	i
COc1cccc(CN2C(=O)N(c3cccc(OC)c3)S(=O)(=O)c3ccccc32)c1	i
CN(C)c1ccc(CCCNC(=O)NC2CC2)cc1	i
CCS(=O)(=O)N1CCCc2cc(NS(=O)(=O)c3ccccc3)ccc21	i
COc1cccc(CC(=O)Nc2ccc(Cn3cnc(C(=O)Nc4ccc(C)cc4)c3)cc2)c1	i
O=C(NCc1ccco1)c1cccc(-n2ccc3ccccc32)c1	i
Cc1ccc(Cl)cc1-n1nnc(C(=O)Nc2cccc(F)c2)c1C	i
Cc1noc(C2CN(Cc3ccc(C)s3)C2)n1	i
Cc1cc2oc(=O)cc(CN3CCN(Cc4ccccc4)CC3)c2cc1O	i
COC(=O)N1CCC(CNC(=O)NC2CCCC2)CC1	i
COC(=O)C1=C(C)NC(=O)NC1c1ccc(O)c(OC)c1 (centres undefined)	i
Cn1c(=O)c2cc(C(=O)N3CCN(c4ccccc4)CC3)sc2n(C)c1=O	i

Quoted at random: four records from the list.
SMILES	GIRK2 activ
CCCNC(=O)Cn1nc2c(c1NC(=O)c1ccc(C(F)(F)F)cc1)CSC2	i
COC(=O)c1cncc(/C=C/c2c(C)cc(O)cc2C)c1	i
Cc1nc(-c2cccs2)sc1CNC(=O)Nc1ccc(F)cc1F	i
O=C(NCc1ccco1)c1cccc(-n2ccc3ccccc32)c1	i

(list continues)
SMILES	GIRK2 activ
COC(=O)N1CCC(CNC(=O)CSc2ccc(F)cc2)CC1	i
CN1CCc2c(sc(NC(=O)c3ccnn3C)c2-c2nc3ccccc3s2)C1	i
CCN1CCN(c2oc(-c3ccc(COc4ccccc4)o3)nc2C#N)CC1	i
Cc1nc(Nc2ccc(F)cn2)sc1C(=O)N1CCc2ccccc2C1	i
CC(=O)Nc1c(-c2ccccn2)nsc1C(=O)N1CCSCC1	i
O=C(NCc1ccc2c(c1)OCO2)C1CCCN(Cc2nc(-c3cccs3)no2)C1 (centres undefined)	i
CCOc1ccc(C2c3c(oc4ccccc4c3=O)C(=O)N2CCN(C)C)cc1 (centres undefined)	i
O=C(CCSc1ccccc1)NCC1CCN(Cc2cccs2)CC1	i
O=S(=O)(c1ccc2c(c1)OCCO2)N1CCCSCC1CN1CCCC1 (centres undefined)	i
CC1CCc2c(sc(NC(=O)CN3C(=O)c4ccccc4C3=O)c2-c2nc3ccccc3s2)C1 (centres undefined)	i
O=C(CCn1ccc(=O)[nH]c1=O)N1CC(c2nc(-c3cccc(Cl)c3)no2)C1	i
CCn1c(-c2nonc2N)nc2cncc(C(=O)NCCNC)c21	i
CN(C)C(CNS(=O)(=O)c1ccc(N2CCCCS2(=O)=O)cc1)c1ccc2c(c1)CCO2 (centres undefined)	i
C#CCCNS(=O)(=O)c1cc(Cl)ccc1C	i
CCN(CC)C(=O)CCC/C=C\C[C@@H]1[C@@H](/C=C/[C@@H](O)CCc2ccccc2)[C@H](O)C[C@@H]1O	i
O=C(Nc1ccccc1C(F)(F)F)N1CCC(Oc2nc3ccccc3s2)CC1	i
CC(C)(C)c1ccc(S(=O)(=O)NCc2ccc(C(=O)N3CCCCCC3)cc2)cc1	i
COc1cccc(CSc2nc(C)c(CC(=O)Nc3cccc(Cl)c3C)c(=O)[nH]2)c1	i
O=C(Cc1ccccc1F)NCCCn1ncccc1=O	i
Cc1cccc(N2CCN(S(=O)(=O)c3ccsc3C(=O)NCC(C)C)CC2)c1	i
O=C(c1cc(-c2ccccc2)on1)N(CCc1cccs1)C1CC1	i
COCCNC(=O)c1nnn(-c2ccc(NC(=O)C3CCC3)cc2)n1	i
O=C(CSC1CCCC1)NCC1CCN(S(=O)(=O)c2cccnc2)CC1	i
CC(=O)N1CCN(C(=O)C(NC(=O)c2ccccc2Cl)S(=O)(=O)c2ccc(C)cc2)CC1 (centres undefined)	i
N#Cc1nc(-c2ccc(S(=O)(=O)N3CCCCC3)cc2)oc1NC1CC1	i
CCOc1cc(C(=O)Nc2ccc3c(c2)CCC(=O)N3CC(C)C)cc(OCC)c1OCC	i
CC(C)S(=O)(=O)c1ccc(C(=O)N(Cc2ccncc2)c2nc3ccc(Cl)cc3s2)cc1	i
Cc1cc(C(O)CCNC(=O)C2CC(=O)N(c3ccc(F)cc3)C2)c(C)o1 (centres undefined)	i
O=C(NCc1ccccc1F)C(=O)Nc1ccccc1[N+](=O)[O-]	i
Cc1nn(C2CCS(=O)(=O)C2)c(C)c1N1CCN(C(=O)c2ccc(F)cc2F)CC1 (centres undefined)	i

Screening results deposited in PubChem BioAssay by Vanderbilt University.
